Screens as filed in PubChem BioAssay.
DUX4 inh = inhibitors of DUX4-driven ZSCAN4 reporter expression, primary screen, 293T cells, Gaussia and Italica luciferase | activity change, negative = inhibition, % (no concentration beside the values) | 37,000 tested, 0.8% active | 293T-iDUX4 ZSCAN4-Gaussia luciferase reporter, 24 h; active compounds read low;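 active = -10% or lower and over 25 points stronger than a control reporter; inconclusive = -10% or lower with a smaller gap; inactive = above -10%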;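 note: 0% = median of neutral control wells and -100% = median of positive control wells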
DUX4 inh difference = recorded beside DUX4 inh, whose call it bears; Gaussia minus Italica difference, %; measured here: selective DUX4 reporter inhibition;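 worked out from the two reporters; negative = selective loss of the DUX4 reporter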
DUX4 inh control = further read-out of DUX4 inh, marked with its call; activity change, negative = inhibition, %; measured here: Italica tet-on control reporter;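 0 = neutral control and -100 = positive control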
An asterisk follows results filed as active; ? = inconclusive; . = no result given; & = joins results of further samples; ! = repeats disagree. A portion of the library. The share of hits here may be higher or lower than overall.

Values in the order – DUX4 inh, DUX4 inh difference, DUX4 inh control
1. O=C(c1cccc(F)c1)N1CC(=O)N2[C@H](CO)[C@@H](c3ccc(C#Cc4ccc(F)cc4)cc3)[C@@H]2C1
  -5, 4, -9.0
2. CNC[C@H]1OCc2cnnn2CCCC(=O)N([C@H](C)CO)C[C@@H]1C
  1, 5, -3.3
3. O=C(NCc1ccncc1)[C@H]1[C@H](CO)[C@H]2Cn3c(ccc(-c4cccnc4)c3=O)[C@H]2N1C(=O)C1CC1
  1, 3, -1.8
4. C/C=C/c1ccc(C2[C@@H]3CN(S(=O)(=O)c4ccc(F)cc4)C[C@H]2N3)cc1 (stereo partly specified)
  2, -9, 11
5. COc1ccc2c3c([nH]c2c1)[C@H](CO)N(C(=O)NC(C)C)CC31CN(C(=O)c2ccccn2)C1
  10, -1, 11
6. COc1ccc(C#Cc2ccc([C@@H]3[C@H](CO)N4C(=O)CN(C(=O)c5cccnc5)C[C@@H]34)cc2)cc1
  -6, 6, -12
7. CNC(=O)C[C@@H]1CC[C@@H]2[C@H](COC[C@H](O)CN2Cc2ccncc2)O1
  12, 10, 1.3
8. C[C@@H]1CN([C@@H](C)CO)S(=O)(=O)c2ccc(-c3ccc(C(=O)N(C)C)cc3)cc2O[C@@H]1CN(C)C(=O)Cc1ccccn1
  2, 29, -28
9. COc1ccc2c3c(n(C)c2c1)[C@@H](CO)N(C(=O)c1ccc(F)cc1)CC31CCN(C(=O)Nc2ccc(F)cc2)CC1
  ?, ., .
10. O=C(C[C@@H]1C[C@H]2c3cc(NC(=O)Nc4ccc(C(F)(F)F)cc4)ccc3O[C@H]2[C@H](CO)O1)NCCc1ccccc1
  -47*, -27*, -20*
11. COc1cccc(NC(=O)N[C@@H]2CC[C@H](CC(=O)N3CCN(C)CC3)O[C@H]2CO)c1
  -9, -8, -1.2
12. CCc1sc(N2[C@H](C#N)[C@H](c3ccccc3-c3ccc(F)cc3)[C@@H]2CO)nc1C
  ?, ., .
13. CCC(=O)NC[C@H]1[C@H](c2ccc(C3=CCCC3)cc2)[C@@H](CO)N1C(C)=O
  1, -4, 5.4
14. CCS(=O)(=O)Nc1ccc2c(c1)C(=O)N(C)[C@@H]1CC[C@H](CC(=O)OC)O[C@H]1CO2
  -5, -5, 0.0
15. Cc1ccc(S(=O)(=O)NCC[C@H]2CC[C@@H](NC(=O)CCN3CCCCC3)[C@H](CO)O2)cc1
  1, -1, 1.6
16. COc1cccc(-c2ccc([C@@H]3[C@@H](CO)N4C(=O)CN(C(=O)C5CCOCC5)C[C@H]34)cc2)c1
  8, 8, -0.7
17. CCCNC(=O)[C@H]1[C@H](CO)[C@H]2Cn3c(ccc(-c4ccccc4F)c3=O)[C@@H]1N2C(=O)CC
  11, 8, 2.8
18. O=C(c1ccncc1)N1CCCCN2[C@H](CO)[C@H](c3ccc(-c4ccccc4)cc3)[C@H]2C1
  11, -4, 15
19. COc1ccc(NC(=O)N[C@H]2CC[C@H](CCn3cc(C4(O)CCCC4)nn3)O[C@H]2CO)cc1
  -3, 1, -4.3
20. Cc1cccc(NC(=O)C[C@H]2CC[C@H]3[C@@H](COc4ccc(NC(=O)NC(C)C)cc4C(=O)N3C)O2)c1
  1, -1, 2.1
21. O=C(C[C@@H]1C[C@H]2c3cc(NC(=O)C4CCOCC4)ccc3O[C@H]2[C@@H](CO)O1)NCc1cc(F)ccc1F
  6, 2, 4.0
22. OC[C@@H]1[C@H](c2ccccc2)C2(CN(CC3CC3)C2)N1Cc1nccs1
  -8, -5, -3.3
23. C[C@H](NC(=O)C[C@H]1C[C@H]2c3cc(NC(=O)c4cccnc4)ccc3O[C@H]2[C@@H](CO)O1)c1ccccc1
  -4, -1, -2.9
24. CO[C@H]1CN(C)C(=O)c2cc(NS(C)(=O)=O)ccc2OC[C@@H](C)N(C(=O)C2CCOCC2)C[C@H]1C
  -3, -3, -0.4
25. CN(C)C(=O)[C@@H]1[C@@H](CO)[C@@H]2Cn3c(ccc(-c4ccccc4)c3=O)[C@H]1N2C(=O)C1CC1
  ?, ., .
26. O=C(N[C@@H]1CC[C@H](CCNS(=O)(=O)c2ccccc2Cl)O[C@@H]1CO)c1ccc(F)cc1
  3, 2, 0.9
27. N#C[C@@H]1N[C@@H](CO)[C@@H]1c1ccc(-c2cccc(F)c2)cc1
  0, 1, -1.1
28. COC(=O)C[C@@H]1CC[C@@H]2[C@H](COC[C@H](O)CN2S(=O)(=O)c2ccc(F)cc2)O1
  4, 0, 4.3
29. COc1ccc2c3c(n(C)c2c1)[C@H](CO)N(C)CC31CCN(C(=O)NC(C)C)CC1
  10, -3, 12
30. COc1ccc(S(=O)(=O)Nc2ccc3c(c2)C(=O)N([C@@H](C)CO)C[C@H](C)[C@@H](CN(C)Cc2ccc(C(F)(F)F)cc2)OCCCC[C@@H](C)O3)cc1
  2, 4, -1.8
31. COc1ccccc1-c1ccccc1[C@@H]1[C@@H](C#N)N(C(=O)CN(C)C)[C@H]1CO
  18, 11, 7.8
32. N#Cc1ccc(-c2ccc([C@@H]3[C@H]4CN(C(=O)C5CCCCC5)CC(=O)N4[C@H]3CO)cc2)cc1
  ?, ., .
33. O=C(C1CC1)N1CC2(C1)[C@@H](c1ccccc1)[C@@H](CO)N2C(=O)CC1CC1
  -2, -10, 8.7
34. O=C(C[C@@H]1C[C@H]2c3cc(NC(=O)c4ccc5c(c4)OCO5)ccc3O[C@H]2[C@H](CO)O1)NCc1ccc(Cl)cc1
  ?, ., .
35. C[C@H]1CN([C@@H](C)CO)S(=O)(=O)c2ccc(C#CC(C)(C)O)cc2O[C@H]1CN(C)Cc1ccc(F)cc1
  0, -2, 2.1
36. C[C@@H]1CN([C@@H](C)CO)S(=O)(=O)c2ccc(C#CC3CCCC3)cc2O[C@H]1CN(C)C(=O)Cc1ccccc1
  10, 9, 0.5
37. CC(C)NC(=O)N1[C@H](C(=O)N2CCc3ccccc3C2)[C@@H](CO)[C@@H]2Cn3c(cccc3=O)[C@@H]21
  0, 0, 0.0
38. O=C(NC[C@@H]1N[C@@H](CO)[C@H]1c1ccccc1)C1CCCC1
  1, 1, -0.5
39. CN(C)CC(=O)Nc1ccc2c(c1)[C@@H]1C[C@H](CC(=O)NCc3ccc4c(c3)OCO4)O[C@H](CO)[C@@H]1O2
  1, -1, 1.9
40. COc1cccc(S(=O)(=O)N2C[C@@H]3N[C@H](C2)C3c2ccc(-c3ccccc3F)cc2)c1 (stereo partly specified)
  -69*!, -42*, -26*

Gathered by group: the entries above containing a cyano group (4)
Values in the order – DUX4 inh, DUX4 inh difference, DUX4 inh control
12. CCc1sc(N2[C@H](C#N)[C@H](c3ccccc3-c3ccc(F)cc3)[C@@H]2CO)nc1C
  ?, ., .
27. N#C[C@@H]1N[C@@H](CO)[C@@H]1c1ccc(-c2cccc(F)c2)cc1
  0, 1, -1.1
31. COc1ccccc1-c1ccccc1[C@@H]1[C@@H](C#N)N(C(=O)CN(C)C)[C@H]1CO
  18, 11, 7.8
32. N#Cc1ccc(-c2ccc([C@@H]3[C@H]4CN(C(=O)C5CCCCC5)CC(=O)N4[C@H]3CO)cc2)cc1
  ?, ., .

Sorted by SMILES length (descending): some entries from above.
Values in the order – DUX4 inh, DUX4 inh difference, DUX4 inh control
30. COc1ccc(S(=O)(=O)Nc2ccc3c(c2)C(=O)N([C@@H](C)CO)C[C@H](C)[C@@H](CN(C)Cc2ccc(C(F)(F)F)cc2)OCCCC[C@@H](C)O3)cc1
  2, 4, -1.8
39. CN(C)CC(=O)Nc1ccc2c(c1)[C@@H]1C[C@H](CC(=O)NCc3ccc4c(c3)OCO4)O[C@H](CO)[C@@H]1O2
  1, -1, 1.9
38. O=C(NC[C@@H]1N[C@@H](CO)[C@H]1c1ccccc1)C1CCCC1
  1, 1, -0.5

Next section.
Values in the order – DUX4 inh, DUX4 inh difference, DUX4 inh control
41. CN1c2ccc(-c3ccc(F)cc3)cc2[C@H]2[C@H](CCN2C(=O)C2CCOCC2)[C@@H]1CO
  -1, 15, -16
42. COCC(=O)Nc1ccc2c(c1)[C@H]1C[C@@H](CC(=O)N[C@@H](C)c3ccccc3)O[C@H](CO)[C@H]1O2
  3, 2, 0.8
43. CN(C)C(=O)C[C@H]1CC[C@@H]2[C@@H](COc3ccc(NC(=O)c4ccc(F)cc4)cc3C(=O)N2C)O1
  5, -1, 6.0
44. CC(C)CC#Cc1ccc([C@@H]2[C@@H](CO)N3C(=O)CN(S(C)(=O)=O)C[C@@H]23)cc1
  ?, ., .
45. CN(C)C(=O)c1cccc(-c2ccc3c(c2)[C@@H]2[C@@H](CCN2Cc2ccccc2F)[C@@H](CO)N3)c1
  ?, ., .
46. Cc1ccc(CN2CC(=O)N3[C@H](CO)[C@H](c4ccc(Br)cc4)[C@H]3C2)cc1
  7, -3, 9.8
47. COCCN(C[C@H]1N[C@H](CO)[C@H]1c1ccc(-c2cccc(F)c2)cc1)C(C)=O
  2, 1, 0.8
48. COc1cccc(C#Cc2ccc([C@H]3[C@@H](CO)N(C(=O)C4CCCCC4)[C@H]3C#N)cc2)c1
  -1, 2, -3.3
49. O=C(Nc1nccs1)[C@@H]1[C@@H](CO)[C@@H]2Cn3c(ccc(-c4cccnc4)c3=O)[C@@H]2N1CC1CC1
  0, 3, -2.2
50. C[C@H](CO)N1C[C@H](C)[C@@H](CN(C)C(=O)Nc2cccc3ccccc23)OCc2cnnn2CCCC1=O
  3, 11, -8.3
51. C[C@H]1CN([C@@H](C)CO)C(=O)c2cc(NS(=O)(=O)c3ccccc3)ccc2O[C@@H]1CN(C)Cc1ccc(Cl)c(Cl)c1
  0, -4, 3.4
52. CCC(=O)N(C)C[C@H]1Oc2cc(C#Cc3ccncc3)ccc2S(=O)(=O)N([C@H](C)CO)C[C@@H]1C
  -3, 0, -2.2
53. CN1C(=O)c2cc(NS(C)(=O)=O)ccc2OC[C@@H]2O[C@H](CC(=O)N3CCOCC3)CC[C@H]21
  5, 4, 1.4
54. COc1ccc(S(=O)(=O)Nc2ccc3c(c2)C(=O)N([C@@H](C)CO)C[C@@H](C)[C@@H](CN(C)Cc2ccncc2)O3)cc1
  7, 5, 1.7
55. CC(=O)N1CC(=O)N2[C@H](CO)[C@@H](c3ccc(-c4ccc(C)cc4)cc3)[C@H]2C1
  6, -3, 8.6
56. CCN(C[C@H]1N[C@H](CO)[C@H]1c1ccc(C2=CCCC2)cc1)C(=O)c1cccnc1
  -5, -1, -4.1
57. CCNC(=O)C[C@H]1CC[C@@H]2[C@H](COc3ccc(NC(C)=O)cc3C(=O)N2C)O1
  2, 0, 1.8
58. CCC(=O)N1CC2(C1)[C@H](c1ccc(-c3cccc(F)c3)cc1)[C@H](CO)N2CC1CC1
  -8, -8, -0.1
59. C[C@@H]1COCc2cn(nn2)CC[C@@H](Cc2ccccc2)C(=O)N1
  3, -1, 3.8
60. C[C@@H]1CN([C@H](C)CO)C(=O)CCCn2nncc2CO[C@H]1CN(C)S(=O)(=O)c1ccc(-c2ccccc2)cc1
  -1, -2, 0.9
61. Cc1cccc(S(=O)(=O)N2[C@@H]3CNC[C@H]2C3c2ccc(-c3ccncc3)cc2)c1 (stereo partly specified)
  7&9, -8&-9, 15&18
62. Cc1nn(C)cc1NC(=O)C[C@H]1CC[C@H]2[C@@H](COc3ccc(NC(=O)Nc4cccc(Cl)c4)cc3C(=O)N2C)O1
  -6, -4, -2.0
63. O=C(C[C@H]1C=C[C@@H](NC(=O)c2ccc(F)cc2)[C@@H](CO)O1)NCCc1ccncc1
  4, 10, -6.0
64. CCC(=O)N1CC2(C1)[C@@H](c1ccc(-c3ccccc3C)cc1)[C@@H](CO)N2C(=O)CC
  -2, 6, -7.8
65. CO[C@H]1CN(C)C(=O)c2cc(NC(=O)c3ccc4c(c3)OCO4)ccc2OC[C@@H](C)N(CC2CC2)C[C@@H]1C
  -6, -5, -0.8
66. COc1ccc2c3c(n(C)c2c1)[C@@H](CO)N(S(=O)(=O)c1ccc(C)cc1)CC31CN(C(=O)c2ccccn2)C1
  ?, ., .
67. Cc1nc(N2[C@H](CO)[C@H](c3ccccc3)[C@H]2CNCC2CCCCC2)sc1C
  5, 2, 2.6
68. CS(=O)(=O)N1[C@@H]2Cn3c(ccc(-c4ccc(F)cc4)c3=O)[C@H]1[C@@H](C(=O)N1CCOCC1)[C@@H]2CO
  2, -2, 4.0
69. COCC(=O)N1CC2(CCN(Cc3cccnc3)CC2)c2c(n(C)c3cc(OC)ccc23)[C@@H]1CO
  18, 1, 17
70. COc1ccc(NC(=O)N[C@@H]2CC[C@@H](CC(=O)NC3CCCCC3)O[C@@H]2CO)cc1
  1, -1, 1.9
71. C[C@@H]1CN([C@H](C)CO)C(=O)c2cc(NS(=O)(=O)c3cn(C)cn3)ccc2O[C@@H](C)CCCCO[C@@H]1CN(C)C(=O)c1ccncc1
  -6, -2, -4.3
72. C[C@@H]1CN([C@@H](C)CO)C(=O)c2cc(N(C)C)ccc2O[C@@H](C)CCCCO[C@@H]1CN(C)S(=O)(=O)c1cccs1
  0, 2, -2.1
73. O=C(C[C@@H]1CC[C@H](NS(=O)(=O)c2ccc(F)cc2)[C@H](CO)O1)NCCc1ccncc1
  3, 0, 2.8
74. CCCNC(=O)N1[C@H](CO)[C@H](c2ccccc2)[C@@H]1C#N
  0, -1, 1.3
75. C[C@H](NC(=O)[C@H]1[C@H](CO)[C@H]2Cn3c(ccc(C4=CCCC4)c3=O)[C@H]2N1C)c1ccccc1
  0, -2, 1.5
